Screening results from PubChem BioAssay.
HIV Env fusion: inhibitors of HIV Env-mediated cell fusion | HeLa-JRFL Env/CEM21 cell fusion, luciferase | inhibition, % at 12.3 µM | 1.1% of 360,000 active | AID 651610;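 active = mean replicate inhibition score of at least 50 and every replicate individually at or above 50; inconclusive = only one of the two criteria met; inactive = mean below 50 and not all replicates reaching 50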;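 note: 0% = plate neutral controls and 100% = maraviroc near 300 nM; one replicate is shown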
Rce1 inh: blocks yeast Ras-converting enzyme; Q03530; yeast membranes, quenched prenylated peptide cleavage fluorescence; calls only; 0.27% of 290,000 active;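 active = fall in fluorescence gain of 50% or more versus controls, with final raw signal at or below 3038400; inconclusive = same 50% fall but final raw signal above 3038400; inactive = fall in fluorescence gain under 50%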;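 note: plate controls were neutral control wells for no effect and wells lacking membranes for full effect; tested at 10 µM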
Target sequence (Q03530 whole entry, looked up): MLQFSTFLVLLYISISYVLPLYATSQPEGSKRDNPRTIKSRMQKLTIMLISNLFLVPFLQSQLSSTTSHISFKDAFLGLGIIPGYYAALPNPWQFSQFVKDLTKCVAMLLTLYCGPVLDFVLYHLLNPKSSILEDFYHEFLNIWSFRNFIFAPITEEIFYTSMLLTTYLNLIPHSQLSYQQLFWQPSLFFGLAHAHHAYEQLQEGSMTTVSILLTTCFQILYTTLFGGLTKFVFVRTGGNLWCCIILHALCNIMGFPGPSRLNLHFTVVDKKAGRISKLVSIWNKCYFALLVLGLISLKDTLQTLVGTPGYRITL
MT1-MMP act inh: inhibitors of human MT1-MMP activation | P50281 | HT1080 RFP-PRO-GFP cells, GFP/RFP ratio fluorescence, overnight; percent of plate control window, DMSO zero | GFP/RFP ratio change, % at 20 µM | 0.061% of 360,000 active | AID 651647;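 active = GFP/RFP ratio change of at least 30% with cell ATP level not reduced by more than half and red fluorescence within 50% of control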; note: strong numbers were not always called active
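Assay system: RFP-PRO-GFP reporter HT1080 cells; read-out basis: GFP/RFP fluorescence ratio; benchmarks: DMSO wells and RFP-L50D-GFP cells; doses: 20 µM single dose, 1% DMSO; schedule: overnight cell settling, then overnight compound exposure, 37 °C, 5% CO2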
Yeast UUG start: modulators of start codon recognition fidelity in yeast; activity score, % at 18.7 µM; 0.13% of 350,000 active; S. cerevisiae UUG-firefly luciferase reporter, luminescence/redox ratio; AID 602363;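 active = replicate mean at a twofold rise or more, about +100% in these data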;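 note: firefly luciferase made from a UUG start codon reports start codon fidelity; reporter light over untreated wells divided by growth signal over untreated wells; some hits fall short of that in this replicate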
eIF4H FP inh: inhibitors of RNA binding by human eIF4H. Q15056. 0.94% of 290,000 active. AID 2012. eIF4H fluorescence polarization binding assay. inhibition, % at 35 µM;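 active = 50% or more with normal probe brightness, or confirmed in later tests; inconclusive = above 50% with abnormal brightness, or retests that disagree; inactive = below 50% or failed in later tests; about a fifth of its hits are not listed in these tables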;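 note: calls also rest on retests at 20 µM and on dose response follow-up; 0% = protein and probe with vehicle and 100% = probe without protein; strong numbers were not always called active; many hits fall short of the cut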
CSC inhib: cancer stem cell inhibition; inhibition, % at 7.5 µM; cancer stem cell-like cells viability, luminescence; 1.1% of 300,000 active;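 active = mean at 75% or more and at least half the replicates too; inconclusive = mean and replicates disagree; tested in HMLE shEcad cells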;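 note: 0% = median of negative and 100% = median of positive control wells; the first replicate is given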
PABP polyA inh: PABP-poly(A) binding inhibition | 1% of 290,000 active | AID 2014 | inhibition, % at 35 µM | PABP-poly(A) RNA binding, fluorescence polarization;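 active = 50% or more with normal probe brightness, or confirmed in later tests; inconclusive = above 50% with abnormal brightness, or retests that disagree; inactive = below 50% or failed in later tests; about a fifth of its hits are not listed in these tables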;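 note: calls also rest on retests at 20 µM and on dose response follow-up; controls were probe without protein and protein plus probe with vehicle; some compounds called inactive have numbers as strong as hits; many hits fall short of the cut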
eIF4H FP inh retest: second read-out of eIF4H FP inh, no call of its own (marks repeat the call); inhibition, %; compound at 20 µM; confirmation average;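 mean of two retest wells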
PABP polyA inh retest: also measured in PABP polyA inh; calls as there; inhibition, %; compound at 20 µM; confirmation repeats;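 mean of two retest wells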
MT1-MMP act inh RFP: further read-out of MT1-MMP act inh, marked with its call; RFP signal change, %; measured here: RFP expression control read;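 0 = vehicle wells; hits needed this value within 50% of zero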
An asterisk follows results filed as active; i = inactive; ? = inconclusive; . = no result given; & = joins results of further samples.

SMILES	HIV Env fusion	Rce1 inh	MT1-MMP act inh	MT1-MMP act inh RFP	Yeast UUG start	eIF4H FP inh	CSC inhib	PABP polyA inh	others
CCc1noc(C)c1C(=O)Nc1ccc(C#N)cc1	-17	i	1	3	-9	.	.	.
Cc1cccc(N2C(=O)CC(Sc3ccccc3C(=O)O)C2=O)c1 (stereo unspecified)	-10	i	1	4	-11	-2	-7	-1
CCOC(=O)[C@@H]1[C@H]2COc3ccccc3[C@@H]2N2C(=O)N(c3cccc(Cl)c3)C(=O)[C@@]12C	55*	i	-2	-4	-4	-8	-1	-1
O=C(NC(=S)NCCN1CCOCC1)c1ccccc1	-25	i	2	5	-5	6	-13	3
O=C(CC(c1ccccc1)c1cc(Br)ccc1O)N1CCCC1 (stereo unspecified)	3	i	-2	-4	.	-6	-18	3
Cc1cc(C)cc(C(=O)OCC(=O)NCCNC(=O)COC(=O)c2cc(C)cc(C)c2)c1	31	i	-3	-2	-21	7	-2	-5
COC(=O)c1c(NC(=O)CN2C(=O)NC3(CCC(C)CC3)C2=O)sc2c1CCC2 (stereo unspecified)	.	.	1	0	-4	.	-22	.
Clc1cc(-c2ccc(/C=N/n3cnnc3)o2)ccc1Br	-31	i	5	3	1	-15	-1	24
COc1ccc(C(=O)Cn2c(NCCO)nc3ccccc32)cc1OC	.	i	-9	2	.	-1	-9	-9
O=C(COC(=O)c1ccc(F)cc1F)Nc1ncccn1	9	i	-2	3	.	96	.	42	eIF4H FP inh retest=5;PABP polyA inh retest=12
c1ccc2c(-c3nn[nH]n3)cccc2c1	-2	i	-1	5	.	5	1	7
CCOc1ccc(NC(=O)c2ccccc2O)cc1	.	i	3	-3	-24	10	-11	-4
CC1(C)CC(=O)C=C(c2cc3ccccc3s2)C1	-35	i	2	-3	-17	.	-1	.
CCOc1ccccc1N1CCN(C(=O)NCc2ccc(Cl)cc2)CC1	4	i	0	0	1	5	1	-1
COCc1ccc(C(=O)N2CCCC(Nc3ccc(C(C)C)cc3)C2)s1 (stereo unspecified)	20	i	-9	-5	8	-6	3	-14
Cc1cccc(-c2cnc3cccnn23)c1	-8	.	-6	-1	-9	.	.	.
COc1ccc(OCC(=O)Nc2ccccc2N2CCCCC2)cc1	74*	i	-9	-16	9	0	61	2
Cc1ccc(C)c(NC(=O)CSc2nnc(CCNC(=O)OC(C)(C)C)o2)c1	-1	i	3	2	-2	-3	1	1
COc1cc(C(=S)N2CCOCC2)ccc1OC(=O)c1ccc([N+](=O)[O-])cc1[N+](=O)[O-]	5	i	3	-6	-5	10	11	-7
c1coc(-c2cnc3ccccc3n2)c1	-51	.	-9	4	-3	.	.	.
COCCCNC(=O)/C=C/c1ccc(OCc2c(F)cccc2Cl)cc1	23	i	-1	-2	.	15	8	-3
CCOC(=O)c1cc(N2CCCCC2)nc2ccccc12	1	.	-1	2	-6	.	.	.
CC(=O)Oc1ccc2c(=O)c(-c3ccccc3)c(C)oc2c1	.	i	3	3	-5	4	-11	5
CCC1(C)Cc2ccccc2-c2nc(NCCCO)n(-c3ccccc3)c(=O)c21 (stereo unspecified)	-12	?	-3	-7	19	7	-2	0
Cc1ccc(NC(=S)N/N=C/c2c(C)[nH]c3ccccc23)cc1	4	i	-2	-3	-16	-5	97*	-15
O=C(Nc1cc(N2CCOCC2)ncn1)c1ccccc1	.	i	-8	-1	-10	-15	.	7
CC(C)(C)OC(=O)N[C@@H](Cc1ccccc1)C(=O)NCC1CCC(C(=O)O)CC1 (stereo partly specified)	-1	i	1	-1	.	-12	0	1
Cc1oc2c(C)c3oc(=O)c(CCC(=O)N4CCC(C(=O)NCCC(=O)O)(c5ccccc5)CC4)c(C)c3cc2c1C	-4	i	1	-1	.	-6	0	-1
COc1ccc(NC(=O)NCCCN2CCCCC2C)cc1 (stereo unspecified)	.	i	3	7	-5	-4	-3	-9
CS(=O)(=O)N(CC(=O)NCCSCc1ccccc1)c1ccccc1Cl	21	i	-1	-2	8	-4	4	1
O=S(=O)(Nc1ncnc2sccc12)c1cccc(F)c1	-12	.	-1	8	-12	.	-7	.
COc1ccc(C2(C(F)(F)F)NC(=O)N(C)C(=O)N2C)cc1 (stereo unspecified)	-22	i	-2	0	0	-9	-5	3
CN(C)/C=C/c1onc(-c2ccccc2Cl)c1C#N	3	i	-28	-2	.	-6	3	1
CC1CCCC(NC(=O)CCn2c(=O)oc3ccccc32)C1C (stereo unspecified)	18	i	1	0	-4	-15	0	-10
O=C(Nc1cc(Cl)ccc1N1CCOCC1)c1ccc(Br)o1	7	i	-4	0	-13	1	-5	3
CC(C)C1OC(c2cccc(NC(=O)c3cccs3)c2)OCC1(C)C (stereo unspecified)	34	i	-1	-12	.	12	7	-10
COc1cccc(C2C(C#N)=C(N)Oc3cc(C)oc(=O)c32)c1OC (stereo unspecified)	0	i	-19	-7	-8	1	.	3
COCC(=O)N1CCC2CC1c1cc(Cl)ccc12 (stereo unspecified)	-23	.	1	4	-11	.	.	.
O=C1/C(=C\c2ccccn2)SC(=S)N1Nc1ncc(C(F)(F)F)cc1Cl	.	i	-6	-1	11	-5	12	5
COc1ccc(OC)c(NC(=O)CSc2nc(O)cc(=O)n2CC(C)C)c1	5	.	-2	2	-24	.	-15	.
CSc1cccc(NC(=O)NNC(=O)C2CCN(S(=O)(=O)N(C)C)CC2)c1	8	i	-2	-1	-17	0	-7	4
COc1ccc(C(=O)N[C@H](C(=O)NC2CCCCC2)C(C)C)cc1	.	.	0	-2	-1	.	-4	.
Cc1ccc(S(=O)(=O)n2cccc2CO)cc1	-36	i	2	0	-6	.	-6	.
CN1CCN(CC(O)c2ccccc2)CC1 (stereo unspecified)	.	i	.	.	.	-11	-10	-9
c1ccc(C2=NNC(c3ccco3)=Nc3ccccc32)cc1	-11	.	1	-1	.	-4	-6	-7
Cc1cc(OCC(=O)Nc2cccc(S(=O)(=O)N3CCCC3)c2)ccc1Cl	-15	.	11	-3	-8	.	.	.
O=C(Nc1ccc(N2CCOCC2)c(Cl)c1)c1cccc(-n2cnnc2)c1	-4	i	0	1	6	-8	-6	2
Cc1onc(-c2ccccc2)c1C(=O)NC(=S)NNC(=O)c1ccc(O)cc1	69*	i	4	1	.	11	19	-4
CC1CCCCN1CC(O)COCc1ccccc1 (stereo unspecified)	-12	i	2	4	-26	6	-1	20
CCC(=O)NC(c1cc(Cl)c2cccnc2c1O)C1CC1 (stereo unspecified)	44	.	4	-5	-24	.	32	.
Nc1ccccc1-n1nc2ccc3ccccc3c2n1	-263	.	0	3	-28	.	.	.
O=S(=O)(c1ccccc1)N1CCC2(CC1)CO2	-3	i	1	1	.	-3	-4	-5
Nc1cc(N)nc(SCc2ccccc2)n1	-83	i	0	4	-12	-8	-4	-6
CCc1nnc(NC(=O)CC23CC4CC(CC(Br)(C4)C2)C3)s1	0	i	1	4	-15	-3	.	-1
CCOC(=O)c1sc(NC(=O)CSc2nc3c(c(-c4ccc(OC)cc4)c2C#N)CCCC3)c(C#N)c1C	.	i	-65	-11	1	-7	4	-6
Cc1ccc(NC(=O)NCC2CCN(Cc3cccc(Cl)c3)CC2)cc1Cl	10	i	2	-8	4	-7	?	4
CCOC(=O)c1[nH]c2ccc(Br)cc2c1NC(=O)CCN1CCC(C(=O)OCC)CC1	23	i	5	-2	3	-4	-14	-7
COc1ccccc1NC(=O)Nn1cnnc1	.	i	8	0	-13	-10	-4	-3
Cc1ccc(C2CC2C(=O)NN)cc1 (stereo unspecified)	.	i	4	5	-9	-8	1	0
C[C@H](CO)N1C[C@H](C)[C@@H](CN(C)C(=O)c2cc(-c3ccccc3)on2)OCc2cnnn2CCCC1=O	0	.	-5	-3	-3&1	.	.	.

The list goes on.
SMILES	HIV Env fusion	Rce1 inh	MT1-MMP act inh	MT1-MMP act inh RFP	Yeast UUG start	eIF4H FP inh	CSC inhib	PABP polyA inh	others
CSc1ccc(C(=S)N2CCCCCC2)cc1	-3	i	0	-5	-27	-4	-6	10
CCN(CC)C(=S)Oc1ccc(Cl)cc1Cl	-3	i	3	-2	-8	0	8	-15
Cc1nn(CCCC(=O)NCc2ccccc2)c(=O)c2nn(-c3ccccc3)c(C)c12	14	i	-2	-3	-12	-3	2	0
Cc1nc(SCC(=O)NCc2ccco2)c2c(C)c(C)sc2n1	-7	i	5	5	.	-2	-12	-4
Cc1ccc(-c2csc3ncnc(OCC(=O)NC(=O)NCc4ccco4)c23)cc1	.	i	.	.	-21	21*	18	51	eIF4H FP inh retest=78*;PABP polyA inh retest=23
Cc1ccc(C)c(-n2c(-c3ccc(Br)cc3)csc2=NC(=O)c2ccccc2F)c1	26	i	-3	-28	-14	-7	3	4
O=S(=O)(O/N=C1\CCCc2ccccc21)c1ccccc1	-25	i	1	1	-5	-3	-8	7
Cc1nonc1C1CCCN1Cc1nc(-c2ccc(F)cc2F)oc1C (stereo unspecified)	7	i	-5	-4	-6	3	-5	1
Cc1ccc(/C=[N+](/[O-])C2SC(=S)N(C)C2(C)C)cc1 (stereo unspecified)	1	i	0	-3	-29	-10	-31	-6
COc1ccc(OCc2cc(C(=O)NC(C)Cn3cncn3)no2)c(Cl)c1 (stereo unspecified)	-3	i	-2	-2	-10	7	-1	-1
Cc1nc2ccccc2n1C(=O)c1cc(-c2ccc(Br)cc2)nc2ccccc12	.	i	7	0	-7	-7	27	5
COc1ccc(N(CC(=O)Nc2ccc3c(c2)OCCO3)S(=O)(=O)c2c(C)nn(C)c2C)cc1	-83	i	-3	-2	-16	4	-1	6

Overlap with the part before: two entries; new compounds follow.
SMILES	HIV Env fusion	Rce1 inh	MT1-MMP act inh	MT1-MMP act inh RFP	Yeast UUG start	eIF4H FP inh	CSC inhib	PABP polyA inh	others
Cc1nc2ccccc2n1C(=O)c1cc(-c2ccc(Br)cc2)nc2ccccc12	.	i	7	0	-7	-7	27	5
COc1ccc(N(CC(=O)Nc2ccc3c(c2)OCCO3)S(=O)(=O)c2c(C)nn(C)c2C)cc1	-83	i	-3	-2	-16	4	-1	6
COc1ccc(C(=O)c2c(-c3ccc(OC)cc3)oc3ccc(-c4cc(OC)c(OC)c(OC)c4)cc23)cc1	36	i	-2	-3	-16	.	5	.
COC(=O)C(C)Sc1nc2c(cnn2-c2ccccc2)c(=O)[nH]1 (stereo unspecified)	-45	i	4	4	-9	4	7	-5
COc1ccc(CC(NC(C)=O)C(=O)NC2CCN(C(=O)Nc3ccc(Cl)cc3)CC2)cc1OC (stereo unspecified)	12	i	3	6	1	4	-10	-5
O=C(NCc1ccc(F)cc1)C1(c2cccs2)CCOCC1	.	i	3	4	-17	-7	-5	-9
COc1ccccc1C1c2[nH]c3ccccc3c2CCN1Cc1cnc(C)s1 (stereo unspecified)	6	i	-8	-2	-3	-1	.	-2
COc1ccc(NC(=S)N/C(=N/S(=O)(=O)c2ccc(C)cc2)c2ccccc2)cc1	0	i	5	5	-20	-10	.	-5
Cc1ccc(C(=O)N/N=C2\SCC(=O)N2c2cc(C)ccc2C)cc1	.	i	-1	-4	.	-7	-8	6
O=C(CN1CCC(c2nc3ccccc3[nH]2)CC1)Nc1ccc2c(c1)OCO2	-12	.	6	3	-5	-3	-2	2
O=C(Cc1ccccc1)Nc1nnc(-c2cccs2)s1	-200	i	12	4	-7	1	-7	0
COc1ccc(CCNC(=O)CCc2ccccc2)cc1OC	-7	i	1	1	-8	.	-7	.
